Screening results (PubChem)
Bfl-1 A1 inh: inhibitors of the anti-apoptotic protein A1, read as caspase activation; MEF A1-2A-BIM cells, Caspase-Glo 3/7 luminescence, 3 h; percent of clofoctol response, vehicle zero; caspase activation, % (concentration not given with the values); AID 2462; actives 0.066% (n = 330,000);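 active = over half of replicate activation scores above 10%, or exactly half above 10 with the replicate mean above 10; inconclusive = replicate mean below 10 yet half the replicates above 10; inactive = over half of replicates below 10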;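 also: wells of about 30 µL received 50 nL stock; many hits fall short of the cut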
T cruzi repl: blocks replication of Trypanosoma cruzi; T. cruzi beta-gal in NIH3T3, luminescence, 90 h; inhibition, % (no concentration beside the values); actives 1.4% (n = 300,000); AID 1885;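 active = mean inhibition across valid replicates above about 55%, limit read from the data; inconclusive = mean below that limit but half or more replicates reach it; inactive = mean below it, under half of replicates reach it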;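 also: signal also drops with host cell toxicity which is not excluded here; 0% = plate median of DMSO wells and 100% = zero luminescence signal; higher percent means less beta-gal luminescence so fewer parasites; stock transfer was 50 nL into about 50 µL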
Vif A3G: HIV-1 Vif–A3G interaction blockers – biochemical, TR-FRET, GST-Vif 1-94, biotin-A3G peptide, dose response retest, primary screen (AID 1117319); TR-FRET GST-Vif / biotin-A3G peptide binding; higher % means a stronger effect; test concentration not given here; strong numbers were not always called active; inhibition, %; hits with a dose series show IC50 in µM; actives 0.57% (n = 260,000);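 active = above the screen mean plus three standard deviations and confirmed in dose response; inconclusive = results disagree or hit not tested in dose response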;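 also: Vif residues 1-94 fused to GST binding biotinylated APOBEC3G peptide 110-148; 0% = full assay without inhibitor and 100% = GST in place of GST-Vif; retest series ran down from 100 µM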
AF4-AF9 inh: blocks AF4 peptide binding to human AF9; P42568; AlphaScreen, biotin-AF4 peptide binding to FLAG-AF9; inhibition, % at 10 µM; actives 0.47% (n = 350,000); AID 651704;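 active = every replicate reaching a set inhibition limit, whatever the replicate mean, cut at about 25% in these data; inconclusive = mean inhibition reaches that limit but some replicates miss it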;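 also: 0% = plate neutral control median and 100% = total signal loss; the record names both 10 and 1 µM as test concentration; the first replicate is given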
RanGTP-Impb inh: inhibitors of RanGTP-importin-beta interaction, primary screen, biochemical, FRET, CFP-Ran, YFP-importin-beta, homogeneous | cell-free CFP-Ran/YFP-importin-beta FRET ratio | AID 2216 | inhibition, % (concentration not given with the values) | actives 1.1% (n = 300,000);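 active = most replicates above 15%; inconclusive = exactly half above 15%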;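 also: 0% = DMSO wells and 100% = Ran loaded with GDP instead of GTP; wells of about 40 µL received 100 nL stock; the first replicate is given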
Beta cell apopt: beta cell apoptosis inhibition | AID 435005 | actives 0.8% (n = 300,000) | INS-1E cytokine-induced death, ATP luminescence, 48 h; percent of positive-control rescue, neutral wells zero | protection from apoptosis, % (concentration not given with the values);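 active = all replicates at 75% or more, or half of them and the mean; inconclusive = half reach 75% but not the mean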;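 also: 0% = cytokine-treated negative control wells and 100% = positive control rescue; higher means more ATP so stronger rescue from cytokine killing; wells of about 40 µL received 100 nL stock; the first replicate is given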
Calb FLC: C. albicans growth modulation with fluconazole; C. albicans CaCi-2 (fluconazole-resistant clinical isolate) + fluconazole, Alamar Blue growth, 48 h; growth inhibition, % (no concentration beside the values); actives 0.57% (n = 300,000); AID 1979;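 active = most replicates above 75%; inconclusive = exactly half above 75%; inactive = most below 75%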;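 also: all wells also contain fluconazole at 8 µg/ml as a sub-toxic cotreatment; 0% = median of DMSO wells and 100% = median of geldanamycin control wells; wells of about 8 µL received 7.5 nL stock; the first replicate is given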
LANA-H2B inh: blocks KSHV LANA binding to histone H2A/H2B; Q9QR71; cell-free LANA-H2A/H2B peptide, fluorescence polarization; inhibition, % (concentration not given with the values); actives 0.6% (n = 320,000); AID 2629; in the data active = inhibition mostly above about 10%, no sharp cut-off; inactive = mostly below about 6.7%;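 also: stock transfer was 7.5 nL into about 10 µL; 0% = median of vehicle wells and 100% = median of positive control wells; one replicate is shown; the record names a cut of 25% in any replicate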
Target sequence (Q9QR71 whole entry, looked up): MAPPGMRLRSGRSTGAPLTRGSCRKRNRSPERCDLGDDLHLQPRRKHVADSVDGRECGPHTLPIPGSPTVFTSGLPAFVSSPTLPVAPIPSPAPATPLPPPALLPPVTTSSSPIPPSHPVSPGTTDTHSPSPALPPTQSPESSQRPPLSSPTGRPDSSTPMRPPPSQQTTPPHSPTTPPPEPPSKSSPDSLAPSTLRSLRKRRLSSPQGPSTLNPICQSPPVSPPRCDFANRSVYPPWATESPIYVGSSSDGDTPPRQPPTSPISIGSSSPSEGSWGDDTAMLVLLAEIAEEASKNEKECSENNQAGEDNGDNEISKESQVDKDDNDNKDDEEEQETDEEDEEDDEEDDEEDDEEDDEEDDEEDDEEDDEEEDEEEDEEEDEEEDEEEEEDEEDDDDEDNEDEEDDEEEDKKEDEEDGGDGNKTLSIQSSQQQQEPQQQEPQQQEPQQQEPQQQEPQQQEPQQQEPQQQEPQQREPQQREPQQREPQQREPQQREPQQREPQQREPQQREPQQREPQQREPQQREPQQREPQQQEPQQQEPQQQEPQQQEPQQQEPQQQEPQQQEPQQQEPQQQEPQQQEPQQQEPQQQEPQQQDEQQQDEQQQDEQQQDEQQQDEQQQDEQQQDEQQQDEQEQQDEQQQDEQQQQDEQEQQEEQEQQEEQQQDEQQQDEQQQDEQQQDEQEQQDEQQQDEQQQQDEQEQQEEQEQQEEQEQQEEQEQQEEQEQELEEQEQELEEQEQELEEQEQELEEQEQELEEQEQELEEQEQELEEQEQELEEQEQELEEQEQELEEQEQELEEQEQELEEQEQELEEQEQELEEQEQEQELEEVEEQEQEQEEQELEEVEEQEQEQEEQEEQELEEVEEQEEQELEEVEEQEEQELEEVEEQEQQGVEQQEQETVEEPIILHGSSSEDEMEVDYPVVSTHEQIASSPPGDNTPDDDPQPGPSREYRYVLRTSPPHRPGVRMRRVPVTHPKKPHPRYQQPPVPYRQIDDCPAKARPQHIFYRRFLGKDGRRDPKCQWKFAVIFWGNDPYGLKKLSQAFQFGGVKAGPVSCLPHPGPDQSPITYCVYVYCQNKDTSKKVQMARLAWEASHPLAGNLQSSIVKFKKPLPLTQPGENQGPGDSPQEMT
Starred values were filed as active, the others as inactive; ? = inconclusive; nt = not tested or not shown; & = joins results of further samples.

SMILES	Bfl-1 A1 inh	T cruzi repl	Vif A3G	AF4-AF9 inh	RanGTP-Impb inh	Beta cell apopt	Calb FLC	LANA-H2B inh
CCCNC(=O)C(=O)NCC1CCCN1CC (stereo not drawn)	-1.3	-1	17%	0.2	1.3	-3	0	-3.2
O=C(Cn1c(-c2ccccc2)noc1=O)Nc1ccc(S(=O)(=O)N2CCOCC2)cc1	-0.3	-19	4%&-4%	nt	-5.1	7	-17	5.0
CCOc1ccccc1Nc1nnc(SCC(=O)NC2CC2)s1	-3.0	nt	nt	-1.7	nt	-4	nt	0.9
O=C(CN1CCOCC1)N1CCN(c2ccc([N+](=O)[O-])cc2)CC1	0.8	-10	-14%	0.4	nt	-10	-7	0.0
COc1ccc(/C=C/c2ccc(=O)n(Cc3ccccc3)n2)cc1	-1.4	-5	6%	1.0	2.3	nt	-7	-8.5
CCCOC1CCCN(Cc2cn(C)nc2-c2ccccc2F)C1 (stereo not drawn)	1.2	6	-2%	-0.6	6.2	-12	-15	-4.5
CCOc1ccc(C(=O)NCC(=O)Nc2ccncc2)cc1OCC	-0.9	nt	-10%	0.1	nt	-2	nt	6.1
CCOC(=O)c1ccc(-n2c(CCC(=O)O)ccc2-c2ccccc2)cc1	0.8	-18	-1%	3.1	-3.0	-2	-1	-2.3
COCCNc1nc(-c2cc(C)c(C)cc2C)cs1	0.0	-6	-1%	1.3	2.9	-1	-20	-1.8
CCN(CC)C(=O)Cn1c(=O)c2ccccc2n2c(=S)sc(-c3cccc(C)c3)c12	-0.5	17	nt	1.0	-10.0	-1	-5	5.1
O=C(COC(=O)c1ccc(CN2CCCC2=O)cc1)Nc1ccc(F)cc1	3.0	nt	-6%	-15	nt	-1	nt	-0.6
COc1ccc(C(=O)N/N=C(/C)c2cccc(NC(=O)C(F)(F)F)c2)cc1	-4.0	2	-3%	nt	5.3	-8	5	4.5
COc1ccc(C(C)=O)cc1CSCC(=O)O	0.4	-9	23%	-0.7	3.5	-5	-5	-1.9
CCN1C(=O)c2cccc3c(NS(=O)(=O)c4ccc(NC(C)=O)cc4)ccc1c23	-1.0	7	0%	nt	?	-3	31	0.7
CCOc1ccc2nc(SCc3ccccc3C#N)sc2c1	-0.2	16	-5%	nt	2.3	1	14	-0.2
COc1cc(/C=C/C(=O)Nc2ccc3nc4n(c(=O)c3c2)CCCC4)cc(OC)c1OC	-0.3	38	-6%	0.5	3.2	8	?	-1.7
COc1cc(NC(=O)/C=C/c2ccccc2[N+](=O)[O-])cc(OC)c1	-5.0	8	nt	nt	1.8	2	-1	-9.0
CCN(CC)Cc1cc2[nH]c3c4ccc(Cl)cc4ncc3c2cc1OC	nt	62*	2%	12	1.4	nt	-23	nt
CCOc1ccc(C(=O)Nc2sc3c(c2C(=O)OC)CC(C)(C)NC3(C)C)cc1	-0.6	36	-2%	1.8	0.4	-9	-10	-1.3
Cc1ccc(C)c(NC(=S)N2CCN(S(=O)(=O)c3ccccc3)CC2)c1	0.3	7	nt	1.1	-0.8	-5	2	1.2
CC1CCN(c2nc(-c3ccc(F)cc3)cc(C(F)(F)F)n2)CC1	1.8	10	-6%	nt	3.5	5	-18	-1.5
COc1ccc(/C=C(\NC(=O)c2ccccc2)C(=O)N/N=C/c2cccnc2)cc1	0.5	-7	-4%	-1.4	1.9	-3	11	-4.8
CCN(c1ccccc1)S(=O)(=O)c1ccc(N2CCN(c3ccc(O)cc3)CC2)nc1	-0.8	nt	11%	-2.3	nt	-10	nt	-1.7
CCN(CC)CCCNC(=O)CCn1nc(-c2ccccc2)ccc1=O	0.4	-5	1%	-3.8	-2.4	-3	-15	0.4
CCc1ccccc1NC(=S)N1CCC(C(=O)c2ccc(F)cc2)CC1	1.2	-3	2%	3.2	5.8	-5	11	-2.4
SMILES	Bfl-1 A1 inh	T cruzi repl	Vif A3G	AF4-AF9 inh	RanGTP-Impb inh	Beta cell apopt	Calb FLC	LANA-H2B inh
CC(NC(=O)c1cc(-c2ccccc2)on1)c1ccccc1 (stereo not drawn)	0.5	-6	-1%	nt	nt	6	-21	2.9
COc1cccc(NC(=O)CN(C)C(=O)C2CC3C=CC2C3)c1 (stereo not drawn)	-0.7	nt	3%	3.9	nt	0	nt	-1.9
O=C(NC1CCN(C(=S)NCc2ccco2)CC1)NC12CC3CC(CC(C3)C1)C2	0.5	10	16%	nt	-2.4	0	-1	2.0
O=C(NCc1ccccc1C(F)(F)F)C1CC(c2ccccc2C(F)(F)F)=NO1 (stereo not drawn)	0.3	8	12%	nt	6.4	7	3	-0.7
NC(=O)c1c(NC(=O)c2ccccc2)sc2c1CCc1ccccc1-2	-6.3	3	-11%	nt	4.2	5	28	3.2
Cc1ncc([N+](=O)[O-])n1CC(=O)Nc1ccc(Cl)cc1	-0.5	7	-5%	0.3	1.1	1	-10	1.1
Cc1cccc(S(=O)(=O)Nc2ccc(-c3ccc4nncn4n3)cc2)c1	0.3	2	-1%	0.6	-5.1	0	2	5.4
CCC1COCCS(=O)(=O)N1Cc1ccccc1 (stereo not drawn)	0.4	-11	nt	?	6.2	4	-18	2.6
CCOC(=O)COc1cccc2c(=O)n(CC(=O)N3CCc4ccccc43)ccc12	0.4	-4	0%	0.5	0.4	2	-7	2.7
Cc1ccc(NC(=Nc2ccc(Br)cc2)N2CCOCC2)cc1C	2.9	6	4%	-0.9	-4.6	-3	-2	-0.4
COc1ccc(C2/C=C\CN(C(=O)C3CCCCC3)CC(=O)N2Cc2ccc(F)cc2)cc1 (stereo not drawn)	1.9	8	nt	7.0	-0.6	-2	0	0.9
CO/N=C/NC(=O)NOCc1c(Cl)cccc1Cl	0.1	-11	4%	nt	-4.7	1	7	3.4
CCc1ccccc1N(C(=O)CCC(=O)Nc1cc(C)on1)C(C(=O)NC1CCCC1)c1ccco1 (stereo not drawn)	0.8	3	-1%	nt	-5.6	-3	6	-0.8
COc1cccc(NC(=O)c2ccc(CN3CCOCC3)cc2)c1	-6.3	1	-1%	nt	1.9	0	-12	0.1
Cn1c(=O)c2c(nc(SCC(=O)NC34CC5CC(CC(C5)C3)C4)n2C)n(C)c1=O	0.6	-8	-4%	nt	-3.0	-3	-3	-2.7
COc1cccc(NC(=S)NCCc2ccccn2)c1	-0.4	-7	-1%	-8.5	-4.2	-1	-17	1.7
CCOC(=O)CCNC(=O)N1CCC(CCC(=O)NCc2ccc(F)cc2)CC1	0.4	2	3%	0.0	-5.5	nt	-1	3.6
CCOC(=O)Nc1ccc(S(=O)(=O)Nc2nccc(C)n2)cc1	0.7	-9	22%	nt	-0.7	-7	10	-0.7
CCOC(=O)C1=C(C)NC(=O)NC1c1cccc(O)c1 (stereo not drawn)	-0.7	-4	-1%	nt	7.1	-5	10	-1.7
S=c1[nH]cnc2sc(-c3ccccc3)cc12	0.2	-2	-35%	-6.1	2.8	0	-28	-6.2
O=C(NCC1CCCN(Cc2cccc(C(F)(F)F)c2)C1)c1ccc(F)cc1 (stereo not drawn)	0.2	57*	2%	8.0	2.8	-6	-9	-1.6
O=C(Cn1cccn1)N1CCCC(N2CCN(c3cccc(C(F)(F)F)c3)CC2)C1 (stereo not drawn)	nt	7	nt	2.3	-5.1	nt	-5	nt
CN1C(=S)SC(N2OC3C(=O)N(c4ccccc4)C(=O)C3C2c2ccccc2)C1(C)C (stereo not drawn)	0.5	-8	nt	-1.0	4.2	-3	7	1.6
O=C(COC(=O)c1cnccn1)NCc1ccc(Cl)cc1	-0.2	-9	3%	-0.3	4.2	0	0	3.2
COC(=O)c1ccc(NC(=O)C(=O)c2c[nH]c3ccccc23)cc1	-2.3	-4	nt	2.9	1.5	nt	-3	-2.4
SMILES	Bfl-1 A1 inh	T cruzi repl	Vif A3G	AF4-AF9 inh	RanGTP-Impb inh	Beta cell apopt	Calb FLC	LANA-H2B inh
COc1ccc(-c2noc(CNC(=O)C(C)Oc3ccccc3)n2)cc1 (stereo not drawn)	0.0	6	nt	-6.5	0.4	-1	8	5.1
COc1ccc(/C=C2\SC(=O)N=C2N)cc1	3.0	-7	2%	-0.5	7.7	-8	17	-3.4
O=C(Nc1ccc(F)cc1)c1ccc(Br)c(S(=O)(=O)N2CCOCC2)c1	-0.2	-8	nt	2.5	3.9	-4	-5	-2.0
CNc1ccccc1C(C)(C)c1cc(-c2cccc([N+](=O)[O-])c2)no1	-1.1	26	nt	13	2.7	10	13	2.0
COc1ccc(N(CC(=O)Nc2cc(Cl)ccc2OC)S(=O)(=O)c2c(C)noc2C)cc1	-1.5	25	-4%&-4%	nt	?	11	-20	8.1
CCCCCC(=O)Nc1nnc(CCc2ccccc2)s1	0.7	6	nt	1.9	-0.9	-1	-8	-1.4
Cc1ccccc1CNC(=O)CCC(=O)N1CCOc2ccc(Cl)cc21	-0.3	-2	nt	8.2	-0.7	-2	9	-0.8
Cc1c(C(=O)N(CC(C)C)c2c(N)n(Cc3ccccc3)c(=O)[nH]c2=O)sc2nc3n(c(=O)c12)CCC3	-0.9	3	-14%	-3.2	-0.1	nt	-15	-3.8
CCOC(=O)c1ccc(NC(=O)CCNS(=O)(=O)c2cc(Br)cnc2N)cc1	0.5	11	-10%	-6.7	0.8	-3	-1	1.8
CCOc1ccccc1C(=O)N/N=C/c1ccoc1	-1.5	nt	nt	-2.8	nt	-6	104*	2.4
O=C1COc2ccc(C(=O)COC(=O)c3c(F)cccc3Cl)cc2N1	-2.9	nt	-12%	0.1	nt	5	nt	0.8
CCOC(=O)N1CCN(C(=O)c2cccc(OC)c2O)CC1	0.4	-5	?	nt	-1.9	0	2	-0.1
CC(=C\C(=O)O)/C(=C\c1cccc2ccccc12)C(=O)O	0.8	-12	nt	-0.4	-1.5	1	5	-1.0
COc1ccc(Nc2ccccc2C(=O)O)cc1	0.1	-3	nt	-1.2	3.5	nt	19	-1.9
Cc1ccc(C)c(S(=O)(=O)NCCN2CCOCC2)c1	0.5	-8	-6%	0.1	2.3	5	8	-4.4
Cc1ccc(N(C(=O)c2cccs2)C2C=CS(=O)(=O)C2)cc1 (stereo not drawn)	0.2	13	9%	-1.4	5.3	-3	-3	-0.2
CC(C)COP(=O)(CNC(=O)CN1C(=O)c2ccccc2S1(=O)=O)OCC(C)C	0.3	0	-12%	nt	4.5	-17	-3	2.9
CC1=NN(c2ccc(N)cc2)C(=O)C1	0.8	5	?	nt	-2.4	-4	4	-4.8
CCOC(=O)C1=C(C)Nc2ccccc2N=C1NC(=O)Cc1ccc(Br)cc1	0.6	1	-3%	-2.4	3.5	nt	22	6.8
Cc1nnc(NC(=O)CSc2nnc(Cc3ccccc3)n2-c2ccccc2)s1	-0.3	-13	-3%	nt	3.6	-5	23	-0.6
Cc1cccc[n+]1CC(=O)/C=C1\N(C)c2ccccc2C1(C)C	-0.7	10	15%	-1.9	?	14	-1	-0.8
Cc1cccc(NC(=O)c2cc(NC(=O)c3ccco3)ccc2Cl)n1	-0.2	nt	10%	nt	nt	-2	nt	4.6
O=C(CCCNC(=O)c1ccc(Cl)cc1)NCc1ccccc1F	0.5	9	5%	-1.1	1.5	-2	2	-4.4
Cc1ccc(S(=O)(=O)Nc2cccnc2Oc2ccc(Cl)cc2)cc1	-0.5	-1	10%	1.1	6.8	16	3	-1.0
CC12CN3CCN(CC(C3)C1(O)CN1CCOCC1)C2 (stereo not drawn)	0.4	-11	27%	nt	4.2	nt	-13	-0.1
